AHR act – human AHR activation | P35869 | AHR-responsive luciferase reporter cells, luminescence | AID 2796 | activation, % at 5 µM | hit rate 2.5% among 320,000; in the data active = activation above about 47%;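 note: 0% = vehicle wells and 100% = reference agonist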
Target sequence (P35869 whole entry, looked up): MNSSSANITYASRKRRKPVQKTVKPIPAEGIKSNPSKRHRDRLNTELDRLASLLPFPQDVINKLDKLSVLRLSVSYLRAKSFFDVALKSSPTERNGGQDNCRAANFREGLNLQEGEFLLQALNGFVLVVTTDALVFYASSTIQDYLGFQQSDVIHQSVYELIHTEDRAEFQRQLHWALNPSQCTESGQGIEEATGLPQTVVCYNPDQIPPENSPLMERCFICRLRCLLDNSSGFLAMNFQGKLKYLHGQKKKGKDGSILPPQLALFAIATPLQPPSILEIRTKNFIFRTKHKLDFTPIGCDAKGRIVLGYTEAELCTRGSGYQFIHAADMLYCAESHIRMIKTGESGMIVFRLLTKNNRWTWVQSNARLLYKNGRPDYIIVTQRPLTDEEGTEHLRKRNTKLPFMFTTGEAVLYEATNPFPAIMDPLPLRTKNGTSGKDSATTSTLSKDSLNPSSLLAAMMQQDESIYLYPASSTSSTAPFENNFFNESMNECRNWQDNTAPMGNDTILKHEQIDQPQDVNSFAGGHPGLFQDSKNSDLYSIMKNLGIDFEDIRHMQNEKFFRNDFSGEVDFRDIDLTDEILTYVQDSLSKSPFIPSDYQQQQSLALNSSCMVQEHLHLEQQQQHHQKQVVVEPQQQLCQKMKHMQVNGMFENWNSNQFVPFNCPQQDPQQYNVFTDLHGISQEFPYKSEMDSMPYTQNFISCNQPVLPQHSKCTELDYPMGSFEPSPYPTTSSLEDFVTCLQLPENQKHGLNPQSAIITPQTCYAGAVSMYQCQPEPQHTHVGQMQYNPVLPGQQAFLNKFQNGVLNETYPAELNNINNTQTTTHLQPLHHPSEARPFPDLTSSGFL
MCL1 BIM primary – MCL1-BIM-BH3 interaction inhibition (human). GST-MCL1 / FITC-Bim-BH3 fluorescence polarization. inhibition, % at 10.9 µM. hit rate 0.68% among 320,000. AID 2057;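 active = inhibition above the mean inhibition of all tested compounds plus 3 SD, set per campaign, cut at about 40% in these data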;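 note: 0% = DMSO wells and 100% = unlabeled Bim-BH3 peptide control; higher means more loss of mP so more displacement of Bim peptide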
BCLXL inh – Bcl-xL (human) inhibition. hit rate 0.7% among 320,000. GST-Bcl-xL / FITC-Bim BH3 peptide fluorescence polarization. AID 2129. Q07817. inhibition, % at 10.9 µM;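 active = inhibition above the mean of all tested compounds plus 3 SD, cutoff set per campaign, cut at about 30% in these data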;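 note: 0% = DMSO wells and 100% = unlabeled Bim-BH3 peptide competitor; inhibitors lower millipolarization by displacing the labeled peptide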
Target sequence (Q07817 whole entry, looked up): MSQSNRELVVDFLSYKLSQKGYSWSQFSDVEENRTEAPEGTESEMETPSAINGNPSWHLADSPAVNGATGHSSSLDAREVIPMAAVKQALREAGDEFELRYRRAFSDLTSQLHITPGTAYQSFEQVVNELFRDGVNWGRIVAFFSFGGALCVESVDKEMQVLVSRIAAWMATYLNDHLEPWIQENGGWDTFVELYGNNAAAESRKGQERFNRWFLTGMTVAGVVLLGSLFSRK
Fam108B counter – counter-screen for RBBP9 inhibitors: inhibitors of mouse Fam108B | recombinant Fam108B, FP-Rh probe fluorescence polarization | inhibition, % at 9.51 µM | hit rate 0.33% among 300,000 | AID 1947;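 active = inhibition above the screen mean inhibition plus 3 SD, computed separately per campaign, cut at about 18% in these data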;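 note: inhibitors lower polarization as less probe binds the enzyme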
GLD-1 TGE inh – GLD-1-TGE RNA interaction inhibition (C. elegans); Q17339; purified GLD-1 + fluorescein TGE RNA, fluorescence polarization; inhibition, % at 5.96 µM; hit rate 0.44% among 320,000; AID 2280;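 active = percent inhibition above a per-plate cutoff, the plate mean of test compounds plus 3 SD, cut at about 30% in these data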;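 note: 0% = DMSO wells with GLD-1 and probe and 100% = wells lacking GLD-1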
MEX-5 binding – C. elegans MEX-5 TCR-2 RNA binding activity; activity score (negative = inhibition of binding), % at 10 µM; hit rate 0.38% among 300,000; Q9XUB2; MEX-5/FITC-TCR2 RNA binding, fluorescence polarization; hits give low values;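 active = inhibition past about -25% in most replicates, and total fluorescence under double the plate's negative control median, limit read from the data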;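 note: 0% = DMSO and -100% = 5 µM competing unlabeled TCR2 RNA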
PME-1 inh – blocks human protein phosphatase methylesterase 1; inhibition, % at 5.9 µM; hit rate 0.53% among 320,000; recombinant PME-1, FP-Rh probe fluorescence polarization; Q9Y570;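 active = inhibition above the campaign mean of all compounds plus 3 SD, cut at about 26% in these data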;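 note: competitive labeling of PME-1 active site by serine hydrolase directed probe; 0% = PME-1 with DMSO and 100% = wells lacking PME-1 enzyme; inhibitors block probe labeling so polarization falls and inhibition rises; many of its hits are not listed in these tables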
pPAFAH FP inh – pPAFAH (human) enzyme inhibition; hit rate 1.5% among 330,000; recombinant pPAFAH, FP-rhodamine probe fluorescence polarization; inhibition, % at 3.39 µM;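 active = inhibition above the mean inhibition across the screen plus 3 SD, cut at about 25% in these data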;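 note: inhibitors block binding of the rhodamine activity-based probe so polarization drops; 0% = enzyme with DMSO and 100% = wells lacking pPAFAH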
The depositor's hits bear a star; x = not tested or not shown.

SMILES	AHR act	MCL1 BIM primary	BCLXL inh	Fam108B counter	GLD-1 TGE inh	MEX-5 binding	PME-1 inh	pPAFAH FP inh
COc1ccc(C2=NOC(Cn3nc(-c4ccccc4)cc3C(=O)O)C2)cc1 (stereo not given)	0	3	5	x	2	x	-3	-1
CC(C)(C)c1ccc(OCCOCCn2cnc3ccccc3c2=O)cc1	11	3	-4	-5	2	-0.9	-1	3
O=C(NCCCN1CCOCC1)c1ccc(CSc2ccc(Cl)cc2)cc1	2	1	-2	-2	-5	0.7	-1	4
O=C(NCc1ccccc1)c1cccc(S(=O)(=O)NCc2ccccc2)c1	-2	-8	-2	1	1	2.1	10	9
CC(NC(=O)c1ccc(C23CC4CC(CC(C4)C2)C3)cc1)C(=O)O (stereo not given)	-2	10	3	0	0	-2.5	-3	8
O=C(Nc1nn[nH]n1)C12CC3CC(CC(C3)C1)C2	2	-2	3	-1	-2	2.3	2	3
COc1ccc(-c2noc(CSc3ccc(C)cc3)n2)cc1	18	5	3	7	-3	-1.2	-12	4
Cc1ccc(S(=O)(=O)CCC(O)c2ccc(Cl)cc2)cc1 (stereo not given)	1	8	-1	0	-17	-0.4	-8	-1
O=C(O)c1ccc(N(c2ccccc2)c2ccccc2)cc1	1	4	6	2	14	x	5	12
O=S(=O)(NCCc1ccc(Cl)cc1)c1cccc2cccnc12	2	4	1	1	1	0.9	-4	3
COC(=O)c1c(C)[nH]c(O)c1C=Nc1ccc(C(C)C)cc1	90*	-1	6	7	11	2.5	15	13
CC(=O)NNC(=S)NC(=O)C(c1ccccc1)c1ccccc1	-4	4	7	3	7	-3.7	-4	7
Cc1cc(C)cc(N(C(=O)c2ccccn2)C(C(=O)NC2CCCCC2)c2cccs2)c1 (stereo not given)	0	4	-2	0	10	-0.8	-7	-3
O=C(NCCc1ccccc1)c1nc2c(nnn2Cc2ccccc2Cl)c(=O)[nH]1	0	8	2	-5	7	2.1	8	12
CC1CCN(S(=O)(=O)c2ccc(NC(=O)CSc3ncccc3C(=O)O)cc2)CC1	-2	2	10	4	0	-0.3	6	9
O=C(O)CC1(c2ccc(F)cc2)C2CC3CC(C2)CC1C3 (stereo not given)	2	5	3	-2	2	0.2	-11	-2
CC1CCCN(C(=O)CCNS(=O)(=O)c2ccc(Br)cc2)C1 (stereo not given)	0	-5	1	-2	0	0.9	-2	8
COc1ccc(OC)c(S(=O)(=O)Nc2ccc3[nH]c(=O)[nH]c3c2)c1	1	-14	0	5	-3	-1.1	2	0
Nc1ccccc1C(=O)NCC1(c2ccccc2)CCCC1	3	7	-1	-4	4	1.0	-7	-3
COC(=O)c1sc2nc(CSc3ccc(Br)cc3)[nH]c(=O)c2c1C	0	-50	-35	-14	-25	-11	-15	4
Cc1ccc(S(=O)(=O)N2CC(C(=O)O)=CC[C@H]2c2ccc(Cl)cc2)cc1	-2	0	-1	-2	2	x	-7	0
COc1ccc(C(=O)O)cc1S(=O)(=O)Nc1ccccc1Cc1ccccc1	x	x	x	x	x	-1.7	x	x
Cc1ccc(S(=O)(=O)N2[C@@H](c3ccc(Cl)cc3)C(C(=O)O)=CC[C@H]2c2ccc(Cl)cc2)cc1	-4	14	16	0	7	x	-16	19
Cc1ccc(S(=O)(=O)N2[C@@H](c3ccc(Br)cc3)C(C(=O)O)=CC[C@H]2c2cccs2)cc1	3	x	x	x	3	x	x	3
Cc1cc(C)cc(C(=O)NCC(=O)OCC(=O)Nc2cccnc2Cl)c1	4	0	8	1	-2	2.0	-2	-5
COc1cccc(CNC(=O)Cn2ccc3cc(S(=O)(=O)N4CCC(C)CC4)ccc32)c1	1	-3	-1	-1	6	4.3	9	4
O=C(CSc1ccc(Cl)cc1)NC1CCCc2ccccc21 (stereo not given)	0	2	6	2	6	1.3	4	10
Cc1cc(=O)oc2c3c(cc(OCC(=O)N[C@H](C(=O)O)c4ccccc4)c12)OC(C)(C)CC3	0	7	10	0	0	0.3	0	15
CCOC(=O)c1c(NC(=O)CSc2nnc(C)s2)sc2c1CCC(C)C2 (stereo not given)	4	-7	2	-1	5	-2.0	-6	13
O=C(NC(=S)Nc1ncccn1)c1ccc(Cl)cc1Cl	13	13	10	-8	6	-0.2	3	-1
Cc1ccc(S(=O)(=O)Oc2ccc(C(c3c(C)[nH][nH]c3=O)c3c(C)[nH][nH]c3=O)cc2)cc1	-2	5	4	1	6	-0.2	9	11
O=C1CC(c2ccccc2)CC(O)=C1C=NC1CCCCCC1 (stereo not given)	2	2	1	-2	-4	0.3	-3	5
COc1ccc(C2(C(=O)NCCc3ccccc3)CCCC2)cc1OC	1	-23	-21	-5	-1	0.6	-3	-1
CCOC(=O)c1c(NC(=O)CSc2ncnc3[nH]ncc23)sc2c1CCC(C)C2 (stereo not given)	0	-8	-2	-11	1	3.0	-6	2
Oc1ccc(Br)cc1-c1n[nH]c(=S)n1Cc1ccccc1	1	-13	-3	-6	1	-0.2	3	0
O=C(Nc1ccccc1O)c1cc(S(=O)(=O)N2CCOCC2)ccc1Cl	-2	-5	0	3	-2	-0.3	5	-1
Cc1cc(C)n2cc(CSc3ccc(Cl)cc3)nc2n1	6	1	5	3	8	3.1	-2	1
Cc1ccc(SCC(=O)NCc2ccccc2C)cc1	3	2	5	1	-3	2.2	-2	-1
CC(Oc1ccc(Cl)cc1)c1ccn[nH]1 (stereo not given)	0	11	1	5	-4	-0.3	-2	-2
CC(C)c1ccc(CNC(=O)CCc2ccccc2)cc1	4	-6	-1	-3	4	-3.5	3	9
O=C(CCSc1ccc(Cl)cc1)N1CCN(c2ccc(O)cc2)CC1	1	31	19	0	5	4.3	6	18
Clc1ccc(CNc2ccc(CNc3ncn[nH]3)cc2)cc1	-1	3	2	-3	6	1.8	-9	1
Cc1ccc(S(=O)(=O)NCCC(=O)Nc2ccc(C)c(Cl)c2)cc1C	1	4	3	-3	-1	-0.4	-3	-4
O=C1OCCN1C(=O)[C@H]1[C@H](c2ccc(F)cc2)C(c2ccc(F)cc2)=NN1c1ccccc1	12	-8	-9	1	-16	7.6	1	9
COC(=O)c1ccc(C)c(NC(=O)CCSc2ccc(Cl)cc2)c1	1	-6	0	2	8	-1.9	-1	3
CC(C)c1ccc(S(=O)(=O)NCc2ccc3c(c2)OCO3)cc1	0	8	3	-3	-3	0.4	3	3
O=C(COC(=O)C1(c2ccc(F)cc2)CCCC1)N1CCOCC1	0	-1	3	4	-1	-0.4	4	1
Cc1ccc(S(=O)(=O)n2cc(C=O)c3ccccc32)cc1	5	0	3	3	-10	-0.2	7	-4
CN(CC(=O)Nc1sc2c(c1C#N)CCCCC2)Cc1nc2ccccc2c(=O)[nH]1	5	6	6	-4	11	0.3	7	8
CC1CCN(S(=O)(=O)c2ccc(S(=O)(=O)NCc3cccnc3)cc2)CC1	1	-17	-1	2	2	0.6	-1	3
Cc1cc(C)nc(NS(=O)(=O)c2ccc(NS(=O)(=O)c3ccc(C#N)cc3)cc2)n1	0	-1	3	1	-3	2.1	4	0
Cc1ccc(SCC(=O)Nc2ccccc2C(=O)O)cc1	12	11	6	1	6	-0.3	-6	-2
Nc1nc(C23CC4CCC(CC(C4)C2)C3)cs1	1	4	5	2	2	-0.8	2	7
CCN(c1ccccc1)S(=O)(=O)c1ccc2c(c1)CCCN2C(C)=O	1	0	4	-6	8	0.5	-3	6
CCc1ccc([C@@H]2CC=C(C(=O)O)[C@H](c3ccccc3)N2S(=O)(=O)c2ccc(C)cc2)cc1	2	4	3	-5	1	x	5	7
C=Cn1c(C(=O)O)cc(CC)c1-c1ccccc1	0	3	1	-2	-3	-0.4	-2	1
Nc1nc(-c2ccc([N+](=O)[O-])cc2)cs1	2	-1	3	7	0	-1.3	0	3
O=C(CSc1ncn[nH]1)Nc1c(F)cc(F)cc1Br	-2	7	4	1	2	4.8	5	8
Cc1ccc(S(=O)(=O)N2[C@@H](c3cccc(Cl)c3)C(C(=O)O)=CC[C@H]2c2ccc(Cl)cc2)cc1	4	14	6	-5	6	x	1	9
Cc1ccc2c(c1)C=CC(C#N)N2C(=O)c1ccccc1 (stereo not given)	3	3	10	0	-1	1.6	-1	-2

Whole records from above:
Results for CC1CCN(S(=O)(=O)c2ccc(S(=O)(=O)NCc3cccnc3)cc2)CC1 → AHR act: 1; MCL1 BIM primary: -17; BCLXL inh: -1; Fam108B counter: 2; GLD-1 TGE inh: 2; MEX-5 binding: 0.6; PME-1 inh: -1; pPAFAH FP inh: 3
Results for C=Cn1c(C(=O)O)cc(CC)c1-c1ccccc1 → AHR act: 0; MCL1 BIM primary: 3; BCLXL inh: 1; Fam108B counter: -2; GLD-1 TGE inh: -3; MEX-5 binding: -0.4; PME-1 inh: -2; pPAFAH FP inh: 1

Further structures.
SMILES	AHR act	MCL1 BIM primary	BCLXL inh	Fam108B counter	GLD-1 TGE inh	MEX-5 binding	PME-1 inh	pPAFAH FP inh
Cc1cc(Br)ccc1SCC(=O)OCC(=O)c1c(N)n(C)c(=O)n(C)c1=O	7	10	2	-3	4	-3.1	2	1
Cc1ccc(S(=O)(=O)N2[C@@H](c3cccc(Cl)c3)C(C(=O)O)=CC[C@H]2c2cccc(Cl)c2)cc1	1	2	-1	-9	-4	x	-1	2
c1ccc(SCc2nc(-c3ccncc3)no2)cc1	11	9	8	0	0	-0.8	-1	6
CCOCCCNC(=O)c1cc2c(=O)n3ccccc3nc2s1	-3	-4	3	1	4	-4.4	-2	5
CSc1ncccc1C(=O)NCCc1ccc(Cl)cc1	6	-2	0	1	2	2.2	2	3
CC1CN(CCCSc2ccc(Cl)cc2)CC(C)O1 (stereo not given)	1	5	4	6	-7	1.6	10	-2
CC(C)(C)c1ccc(C(=O)NCCC(=O)Nc2cc(Cl)ccc2N2CCOCC2)cc1	6	-25	-9	x	5	x	1	5
CC(=O)c1c(C)[nH]c(C(=O)NCCc2ccc(Cl)cc2)c1C	29	0	3	9	-4	0.5	0	4
O=C(CCNS(=O)(=O)c1ccccc1C(F)(F)F)NCCCSc1ccccc1	3	5	4	3	5	-0.5	1	8
CCN(c1ccccc1)S(=O)(=O)c1cccc(C(=O)O)c1	2	-3	-7	2	-42	0.7	-6	-4
O=C(CCc1nnc(C2(c3ccc(Cl)cc3)CCC2)o1)N1CCCC(O)C1 (stereo not given)	0	-3	2	0	5	1.8	0	1
COc1ccc(Cc2nnc(SCC(=O)Nc3cc(Cl)ccc3OC)[nH]c2=O)cc1	4	3	3	-3	-1	-0.9	5	3
CN(Cc1ccccc1F)Cc1cc(=O)oc2cc(O)c(Cl)cc12	1	8	5	0	7	-5.3	-1	9
CCOC(=O)C1=C(COC(=O)CSc2ccc(C)cc2)NC(=O)NC1C (stereo not given)	1	6	5	x	4	x	19	18
Cc1ccc(S(=O)(=O)NC(=O)NCc2ccc(Cl)cc2)cc1	2	3	-2	0	-2	-1.4	8	-1
COCC(C)NC(=O)CCc1nnc(C2(c3ccc(Cl)cc3)CCC2)o1 (stereo not given)	3	1	-6	1	3	3.4	7	-1
Cc1ccc([C@H]2C(C(=O)O)=CC[C@@H](c3ccc(Cl)cc3)N2S(=O)(=O)c2ccccc2C)cc1	0	x	x	x	1	x	x	13
O=C(O)c1cc2cc(OCc3ccccc3)ccc2[nH]1	0	3	2	-2	4	1.5	-4	5
CCOC(=O)C(=O)c1csc(NC(=O)CCSc2ccc(C)cc2)n1	1	11	3	-3	6	0.8	-2	1
Cc1c(NC(=O)C2CCN(S(=O)(=O)c3ccc(Cl)cc3)CC2)c(=O)n(-c2ccccc2)n1C	2	-5	-3	0	-1	0.1	-1	1
O=c1[nH]nc(Cc2ccc(Cl)cc2)c2ccccc12	4	-4	-4	0	7	-0.4	-3	5
CC(C)(C)c1[nH]nc2c1C(c1ccsc1)C(C#N)=C(N)O2 (stereo not given)	3	-4	4	1	6	-0.6	-2	3
Cc1ccc(SCC(=O)O/N=C(\N)c2ccc([N+](=O)[O-])cc2)cc1	1	5	5	0	-1	2.0	3	12

Assay outcomes: PubChem, several laboratories

The list is partial; count on the stated rates, not on these rows.
